# High-throughput results deposited in PubChem by several laboratories.
# Env fusion inh – inhibitors of HIV-1 Env-driven cell-cell fusion, primary screen, HeLa-JRFL effector, CEM21 target cells, luciferase; inhibition, % at 12.3 µM; 1.1% of 360,000 active;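 active = mean replicate inhibition score of at least 50 and every replicate individually at or above 50; inconclusive = only one of the two criteria met; inactive = mean below 50 and not all replicates reaching 50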;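 also: 0% = plate neutral controls and 100% = maraviroc near 300 nM; one replicate is shown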
# CSC inhib – cancer stem cell viability inhibitors, primary screen, luminescence; cancer stem cell-like cells viability; 1.1% of 300,000 active; inhibition, % at 7.5 µM;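 active = mean at 75% or more and at least half the replicates too; inconclusive = mean and replicates disagree; tested in HMLE shEcad cells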;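 also: 0% = median of negative and 100% = median of positive control wells; the first replicate is given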
# PABP FP inh – PABP poly(A) RNA binding inhibitors, primary screen, biochemical, fluorescence polarization, uHTS. inhibition, % at 35 µM. 1% of 290,000 active. AID 2014, 2009;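 active = 50% or more with normal probe brightness, or confirmed in later tests; inconclusive = above 50% with abnormal brightness, or retests that disagree; inactive = below 50% or failed in later tests; about a fifth of its hits are not listed in these tables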;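 also: calls also rest on retests at 20 µM and on dose response follow-up; controls were probe without protein and protein plus probe with vehicle; some compounds called inactive have numbers as strong as hits; many hits fall short of the cut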
# Target sequence (P11940 whole entry, looked up): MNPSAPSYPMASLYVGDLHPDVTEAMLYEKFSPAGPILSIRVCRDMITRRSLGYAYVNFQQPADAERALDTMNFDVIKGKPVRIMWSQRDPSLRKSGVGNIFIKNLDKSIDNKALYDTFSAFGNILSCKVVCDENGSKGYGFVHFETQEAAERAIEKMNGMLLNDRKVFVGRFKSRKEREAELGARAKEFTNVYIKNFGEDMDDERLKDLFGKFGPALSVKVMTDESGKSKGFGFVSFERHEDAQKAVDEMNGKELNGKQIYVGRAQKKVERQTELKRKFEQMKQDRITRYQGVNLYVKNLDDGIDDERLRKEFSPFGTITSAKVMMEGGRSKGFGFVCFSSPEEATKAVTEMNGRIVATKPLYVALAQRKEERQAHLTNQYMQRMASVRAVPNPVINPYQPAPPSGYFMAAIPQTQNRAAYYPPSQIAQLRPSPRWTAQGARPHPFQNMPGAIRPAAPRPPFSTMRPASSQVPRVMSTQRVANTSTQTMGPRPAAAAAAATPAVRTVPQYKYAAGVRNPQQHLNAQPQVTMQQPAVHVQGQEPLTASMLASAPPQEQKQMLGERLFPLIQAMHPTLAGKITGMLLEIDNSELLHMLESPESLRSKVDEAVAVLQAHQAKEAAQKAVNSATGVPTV
# eIF4H FP inh – human eIF4H binding inhibitors, primary screen, translation initiation inhibitor project, biochemical, uHTS, fluorescence polarization | Eukaryotic translation initiation factor 4H (Homo sapiens), Q15056 | eIF4H fluorescence polarization binding assay | inhibition, % at 35 µM | 0.94% of 290,000 active;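 active = 50% or more with normal probe brightness, or confirmed in later tests; inconclusive = above 50% with abnormal brightness, or retests that disagree; inactive = below 50% or failed in later tests; about a fifth of its hits are not listed in these tables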;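 also: calls also rest on retests at 20 µM and on dose response follow-up; 0% = protein and probe with vehicle and 100% = probe without protein; strong numbers were not always called active; many hits fall short of the cut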
# UUG fidelity – modulators of yeast start codon fidelity, primary screen, whole organism, S. cerevisiae, single point, plate reader | S. cerevisiae UUG-firefly luciferase reporter, luminescence/redox ratio | activity score, % at 18.7 µM | 0.13% of 350,000 active | AID 602363, 2012;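 active = replicate mean at a twofold rise or more, about +100% in these data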;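 also: firefly luciferase made from a UUG start codon reports start codon fidelity; reporter light over untreated wells divided by growth signal over untreated wells; some hits fall short of that in this replicate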
# Rce1 inh – yeast Rce1p protease inhibitors, primary screen, biochemical, fluorescence, cell-free homogeneous | CAAX prenyl protease 2 (Saccharomyces cerevisiae (strain ATCC 204508 / S288c)), Q03530 | AID 2563, 2010 | calls only | yeast membranes, quenched prenylated peptide cleavage fluorescence | 0.27% of 290,000 active;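 active = fall in fluorescence gain of 50% or more versus controls, with final raw signal at or below 3038400; inconclusive = same 50% fall but final raw signal above 3038400; inactive = fall in fluorescence gain under 50%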;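 also: plate controls were neutral control wells for no effect and wells lacking membranes for full effect; tested at 10 µM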
# MT1-MMP act inh – blockers of MT1-MMP proenzyme processing, primary screen, HT1080 RFP-PRO-GFP cells, GFP/RFP fluorescence; Matrix metalloproteinase-14 (Homo sapiens), P50281; GFP/RFP ratio fluorescence, overnight; percent of plate control window, DMSO zero; GFP/RFP ratio change, % at 20 µM; 0.061% of 360,000 active;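 active = GFP/RFP ratio change of at least 30% with cell ATP level not reduced by more than half and red fluorescence within 50% of control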; also: strong numbers were not always called active
#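 Material: RFP-PRO-GFP reporter HT1080 cells. Dosing: single-point 20 µM compound, 1% DMSO. Controls: DMSO and RFP-L50D-GFP cell wells. Timing: cells overnight before dosing, compound overnight, 37 °C, 5% CO2. Measure: GFP/RFP fluorescence ratio.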
# eIF4H FP inh retest – further read-out of eIF4H FP inh, marked with its call; inhibition, %; compound at 20 µM; confirmation average;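 mean of two retest wells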
# PABP FP inh retest – second read-out of PABP FP inh, no call of its own (marks repeat the call); inhibition, %; compound at 20 µM; confirmation repeats;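 mean of two retest wells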
# MT1-MMP act inh RFP – second read-out of MT1-MMP act inh, no call of its own (marks repeat the call); RFP signal change, %; measured here: RFP expression control read;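 0 = vehicle wells; hits needed this value within 50% of zero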
# * marks the source's active call; other numbers are inactive results; i = inactive; ? = inconclusive; / = not tested or not shown.
SMILES,Env fusion inh,CSC inhib,PABP FP inh,eIF4H FP inh,UUG fidelity,Rce1 inh,MT1-MMP act inh,MT1-MMP act inh RFP,others
COc1ccc(CCNC(=O)COC(=O)c2ccc(N3CCCC3=O)cc2)cc1OC,-12,3,-20,-8,-2,i,2,4,
Cc1cc2oc(C(=O)Nc3nonc3C)c(C)c2cc1C,-112,21,-6,-2,-7,i,-3,0,
COc1cccc(CN(C)C(=O)CCNC(=O)c2ccc(Br)cc2)c1,22,-5,21,1,-4,i,-2,-4,
COC(=O)C[C@H]1c2cc(C(F)(F)F)ccc2S(=O)(=O)N1C1CCCC1,10,9,/,/,-9,i,2,-3,
COc1cc(OC)c2c(-c3ccccc3)cc(=O)oc2c1C(CCN1CCOCC1)c1ccc2c(c1)OCO2 (stereo unspecified),-61,/,/,/,-12,/,4,-6,
CCOC(=O)CCCCCN(Cc1ccccc1)S(=O)(=O)c1ccc([N+](=O)[O-])cc1,1,/,-10,-13,/,i,1,3,
COc1ccccc1CNC(=O)c1cccc(N(C)C)c1,/,-5,6,1,-12,i,3,-6,
O=C(COC(=O)Cc1ccc(Cl)cc1)NCc1ccc2c(c1)OCO2,7,/,/,/,-2,/,5,5,
CC1(C)CC(=O)CC(C)(C)N1OC(=O)c1ccncc1,5,/,-6,2,-6,i,4,4,
CC(=O)NC1CC2CCCC(C1)N2C(=O)Nc1c(C)cccc1C (stereo unspecified),19,/,/,/,-21,/,4,3,
N=c1oc2ccc3ccccc3c2cc1-c1nc(-c2ccccc2)cs1,-4,4,-4,1,-14,i,-4,4,
O=C(CNC(c1ccccc1)c1ccccc1)Nc1cc([N+](=O)[O-])ccc1Cl,/,7,-2,0,/,i,-1,-4,

# Sorted by count of non-hydrogen atoms (descending): 4 of the compounds above.
SMILES,Env fusion inh,CSC inhib,PABP FP inh,eIF4H FP inh,UUG fidelity,Rce1 inh,MT1-MMP act inh,MT1-MMP act inh RFP,others
COc1cc(OC)c2c(-c3ccccc3)cc(=O)oc2c1C(CCN1CCOCC1)c1ccc2c(c1)OCO2 (stereo unspecified),-61,/,/,/,-12,/,4,-6,
CCOC(=O)CCCCCN(Cc1ccccc1)S(=O)(=O)c1ccc([N+](=O)[O-])cc1,1,/,-10,-13,/,i,1,3,
N=c1oc2ccc3ccccc3c2cc1-c1nc(-c2ccccc2)cs1,-4,4,-4,1,-14,i,-4,4,
CC(=O)NC1CC2CCCC(C1)N2C(=O)Nc1c(C)cccc1C (stereo unspecified),19,/,/,/,-21,/,4,3,

# Further compounds follow.
SMILES,Env fusion inh,CSC inhib,PABP FP inh,eIF4H FP inh,UUG fidelity,Rce1 inh,MT1-MMP act inh,MT1-MMP act inh RFP,others
Cc1cccc(NC(=O)[C@@H]2CCCN2S(=O)(=O)c2ccc(Cl)cc2)c1,20,-3,/,/,-1,/,-3,-3,
CCOC(=O)N1CCN(C(=O)CSc2nnc(COc3ccc(Cl)cc3)o2)CC1,12,-14,0,-7,-16,i,1,3,
Cn1ncc(C#N)c1/N=C/N1CCOCC1,-15,-20,4,43,12,/,-7,-1,
CCN(CC)CCN1C(=O)C(=O)/C(=C(/O)c2cnn(-c3ccccc3)c2C)C1c1ccc(C)o1 (stereo unspecified),-15,-7,6,3,-3,i,-3,2,
O=C(c1ccc(Cl)cc1)N1CCCC(c2ccccc2)=N1,/,0,1,-3,7,i,-4,-3,
CC(C)(C)NC(=O)C(=O)N/N=C/c1ccc(F)cc1,11,-13,25,-1,/,i,6,-1,
O=C(NCC1CCCO1)c1ccccc1-c1nc(-c2ccccc2)no1 (stereo unspecified),/,-15,-1,0,-9,i,-4,6,
Cc1ccc(C(=O)C[n+]2cc(Br)cc(Br)c2)cc1[N+](=O)[O-],/,-12,7,10,/,i,2,2,
Cc1cc(C(c2nnnn2Cc2ccccc2)N2CCOCC2)c(C)n1-c1ccc2c(c1)OCO2 (stereo unspecified),/,6,1,5,-7,i,0,0,
COc1ccc(C(=O)Nc2cc(C)nn2-c2ccc(C)cc2)cc1,17,8,-15,-9,-11,i,-4,0,
CC1(C)Cc2nc3oc4c(N(CCO)Cc5ccccc5)ncnc4c3cc2CO1,46,-10,-2,-6,6,i,-4,-10,
COc1ccc(OC)c(C(=O)Cn2c3[n+](c4ccc(C(F)(F)F)cc42)CCCCC3)c1,-20,0,2,-11,-3,i,2,5,

# Looked up by compound from above, two records:
SMILES,Env fusion inh,CSC inhib,PABP FP inh,eIF4H FP inh,UUG fidelity,Rce1 inh,MT1-MMP act inh,MT1-MMP act inh RFP,others
O=C(c1ccc(Cl)cc1)N1CCCC(c2ccccc2)=N1,/,0,1,-3,7,i,-4,-3,
COc1ccc(OC)c(C(=O)Cn2c3[n+](c4ccc(C(F)(F)F)cc42)CCCCC3)c1,-20,0,2,-11,-3,i,2,5,

# For reference, four of the compounds above.
SMILES,Env fusion inh,CSC inhib,PABP FP inh,eIF4H FP inh,UUG fidelity,Rce1 inh,MT1-MMP act inh,MT1-MMP act inh RFP,others
O=C(COC(=O)Cc1ccc(Cl)cc1)NCc1ccc2c(c1)OCO2,7,/,/,/,-2,/,5,5,
CC1(C)CC(=O)CC(C)(C)N1OC(=O)c1ccncc1,5,/,-6,2,-6,i,4,4,
CC(=O)NC1CC2CCCC(C1)N2C(=O)Nc1c(C)cccc1C (stereo unspecified),19,/,/,/,-21,/,4,3,
N=c1oc2ccc3ccccc3c2cc1-c1nc(-c2ccccc2)cs1,-4,4,-4,1,-14,i,-4,4,

# The results go on:
SMILES,Env fusion inh,CSC inhib,PABP FP inh,eIF4H FP inh,UUG fidelity,Rce1 inh,MT1-MMP act inh,MT1-MMP act inh RFP,others
COCCCN1C(=O)c2ccc(C(=O)OCC(=O)N(CCC#N)c3cc(C)cc(C)c3)cc2C1=O,6,-5,/,/,16,i,2,1,
CC(CN1CCOCC1)OC(=O)/C=C/c1ccccc1 (stereo unspecified),31,4,2,-3,/,i,2,-3,
Cc1cccc(OCC(=O)N/N=C/C=C/c2ccco2)c1,20,-15,1,81*,-28,i,0,6,eIF4H FP inh retest=67*;PABP FP inh retest=30
COc1ccc(C(CNC(=O)c2ccc(S(=O)(=O)N3CCCC3)cc2)N(C)C)cc1OC (stereo unspecified),-17,/,0,-8,-2,i,2,6,
COc1ccc2c(c1OC)C(=O)OC2n1c(O)c(N=NC(C)=O)c2ccccc21 (stereo unspecified),-7,-11,3,-6,-9,i,4,4,
CCOC(=O)c1ccccc1NC(=O)COc1ccccc1,/,-1,-8,-3,-9,i,-5,-5,
Cc1ccc(S(=O)(=O)c2nc(S(C)(=O)=O)sc2N2CCC(C)CC2)cc1,-12,-9,1,2,-12,i,-4,-5,
CN(CC(=O)Nc1c(Cl)cccc1Cl)C(=O)c1ccncc1,-5,-6,-8,-8,-1,i,-3,-2,
CN(CC(=O)Nc1ccc(F)c(F)c1F)C(=O)CCN1C(=O)C2CCCCC2C1=O (stereo unspecified),-1,-6,/,/,0,/,-3,1,
Cc1c(C)c2cc(Cl)c(O)c(CN(C)C)c2oc1=O,-281,-7,27,15,-19,?,8,5,
O=C(Nc1ccc(Br)cc1)c1cccc(N2C(=O)C3CCCCC3C2=O)c1 (stereo unspecified),1,-5,-5,-20,0,i,5,-3,
CCCCOc1ccc(C(=S)N2CCC(C(N)=O)CC2)cc1,27,-7,2,-5,/,i,-2,-4,
O=C(N1CCCCCC1)N1CCN(S(=O)(=O)N2CCCCC2)CC1,/,-10,-5,-4,-17,i,1,1,
COC(=O)c1cccc(Cn2nnc3ccccc3c2=O)c1,/,-2,-3,-8,9,i,-2,-1,
CCN(CC)C(=O)CSc1nc2ccccc2c(=O)n1CC1CCCCC1,/,5,-4,6,-3,i,-2,-16,
O=C(COC(=O)Cn1cnc2ccccc21)Nc1ccc(OC(F)F)cc1,-4,-7,/,/,-8,/,-4,-2,
CCOC(=O)N1CCC(NC(=O)c2cc3c(-c4ccc(Cl)cc4)nn(C)c3s2)CC1,4,/,-9,2,-4,/,-3,7,
Cc1ccc(-c2noc(CCC(=O)NC3CC3)n2)cc1,-13,7,-5,-4,-8,i,1,-1,
CCCCOC(=O)/C=C\C(=O)OCCCC,/,-9,9,3,-19,i,-3,-1,
CCOC(=O)C1=C(N)Oc2cc(C)n(CCc3ccc(OC)c(OC)c3)c(=O)c2C1c1cccnc1 (stereo unspecified),/,-39,-6,5,6,i,-2,2,
COc1ccc(CCNC(=O)CSc2n[nH]c(N)n2)cc1,13,/,-16,6,-21,i,3,4,
CC(C)OC(=O)NC(C)(C)COC(=O)Nc1cccc(Cl)c1,45,/,4,-3,-6,i,1,-3,
CC(C)n1c(N)c(C#N)c2ccc([N+](=O)[O-])cc2c1=O,15,5,2,6,-10,i,-9,-2,
O=C(COC(=O)c1ccc(S(=O)(=O)N2CCCC2)cc1)NCCc1ccc(F)cc1,7,3,/,/,-4,/,2,3,
O=C(CN1C(=O)/C(=C\c2ccccc2Cl)Oc2ccccc21)NCc1cccnc1,-11,20,-7,0,/,i,4,2,
C#CCOCCOCCOCCNc1nc(N2CCN(C(=O)[C@H](Cc3cc4ccccc4[nH]3)n3cc([C@@H](N)C(C)CC)nn3)CC2)nc(N2CCN(C(=O)[C@H](Cc3cc4ccccc4[nH]3)n3cc([C@@H](N)Cc4ccc(O)cc4)nn3)CC2)n1 (stereo partly specified),/,-7,-40,5,/,i,/,/,
CCOc1ccc(C(=O)N2CCCC(c3nc(-c4cccs4)no3)C2)cc1 (stereo unspecified),-11,1,11,-7,10,i,-2,-7,
Cc1cc(C)c(NC(=O)COC(=O)C2CCN(c3ccc(C(F)(F)F)cn3)CC2)c(Cl)c1,-2,/,/,/,-6,i,3,0,
CCOc1ccc(C(=O)Nc2cc(C)ccn2)cc1,-17,-10,-22,-13,-67,/,-4,-7,
COc1ccc(/C=N/NC(=O)c2cc[n+]([O-])cc2)cc1OC,/,4,5,-2,-19,i,-4,2,
CCCCCn1nc(C(=O)OCc2nnc(-c3ccccc3)o2)c2ccccc2c1=O,33,-16,/,/,-12,i,-2,-1,
Clc1ccc(CSc2nnc(CN3CCOCC3)n2-c2ccccc2)cc1Cl,/,21,-4,-7,-2,i,-7,-5,
O=C(CCNS(=O)(=O)c1ccc(Br)cc1)NC1CCC(O)CC1 (stereo unspecified),/,-8,/,/,-19,/,3,6,
CC1CCCC(C)N1C(=O)COC(=O)Cc1ccc(Cl)cc1 (stereo unspecified),-10,-5,2,1,1,i,-3,1,
COc1ccccc1N(CC(O)CN1CCC(C)CC1)S(=O)(=O)c1ccccc1 (stereo unspecified),-14,1,3,3,-4,i,-4,-5,
COc1ccc(CCNc2ccc(C(CC(N)=O)NC(=O)c3cc(OC)ccc3OC)cc2[N+](=O)[O-])cc1 (stereo unspecified),14,3,8,-11,3,i,4,-1,
Cc1ccccc1CSc1ccc2nnc(-c3ccccn3)n2n1,15,-2,-13,4,-21,i,-2,-5,
Cc1ccc(-c2cn(-c3ccc(SC(F)F)cc3)c3[n+]2CCC3)cc1,/,/,2,5,/,i,12,-24,
CCCC[C@H]1COCCS(=O)(=O)N1Cc1ccc(C)cc1,12,18,2,7,-9,i,3,-2,
